# miR-21 FLuc: miR-21 reporter, rising signal; HeLa miR-21 FLuc reporter, luciferase, 48 h; Potency, µM (series often up to 38.3 µM), without a hit: top-dose reporter change, positive = more light; 340,000 tested, under 10 active; active = well fitted rising curve with a large enough effect; inconclusive = small, poorly fitted or top-dose-only effect; inactive = no such curve, though single readings can be large or run the other way;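 also: % of control where 0% means no effect; miR-21 action dims this reporter so a rising signal means less miR-21 action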
#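 HeLa miR-21-FLuc reporter line, endogenous miR-21; 2000 cells/well in DMEM/10% FBS; compound titration up to ~40uM final, 48 h, 37 degree Celsius; luciferase detection reagent, 15 min lysis, CCD luminescence.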
# * = called active by the depositor; ? = inconclusive. Not all compounds are listed. The share of hits here may be higher or lower than overall.
SMILES,miR-21 FLuc
CC(=O)c1c(C)oc2c1cc(NS(=O)(=O)c1ccc(C(C)(C)C)cc1)c1ccccc12,23%
CC(C)CCn1c(SCc2cccc(F)c2)nc2ccsc2c1=O,-2%
CCc1ccc2occ(CC(=O)Nc3c(C(=O)c4ccccc4)oc4ccccc34)c2c1,-1%
O=C(c1cnc(N2CCCCC2)c2ccccc12)N1CCN(c2ccc(F)cc2)CC1,20%
Cc1ccccc1CN1CCC(CNC(=O)c2c(C)oc3ncnc(N4CCCCC4)c23)CC1,-5%
Cc1ccc2nc(-c3ccccc3O)c(Nc3ccccc3C)n2c1,-1%
O=C(CSc1nc2c(cnn2-c2ccc(F)cc2)c(=O)[nH]1)Nc1ccccc1C(F)(F)F,-2%
CC(=O)Nc1ccc2nc(SCCOc3ccccc3Cl)sc2c1,-19%
Cn1c(C(=O)NCc2ccccc2F)cc2oc3ccccc3c21,-4%
COc1cccc(-n2nnc(-c3nc(-c4cccs4)no3)c2N)c1,-75%
CC(C)(C)c1ccc(CSc2nc3c(c(=O)[nH]2)CCCC3)cc1,0%
O=C(CSc1cn(CCNC(=O)c2ccccc2F)c2ccccc12)Nc1ccccc1F,30%
COc1ccc(CCNc2nc3c(-c4cccc(C)c4)nnn3c3ccccc23)cc1OC,-10%
CCOC(=O)c1c(NC(=O)COc2ccc(C)cc2C(C)(C)C)sc2c1CCC(C)C2 (stereo not given),2%
Cc1nn2c(=O)cc(COC(=O)COc3ccc(F)cc3)nc2s1,-1%
COc1ccc(-c2nc(SCC(=O)Nc3ccc4c(c3)OCCO4)c(-c3ccc(F)cc3)[nH]2)cc1OC,14%
CCOc1ccc(-c2cn3c(n2)sc2cc(C(=O)NCCc4ccc(OC)c(OC)c4)ccc23)cc1,-21%
O=C(NCc1noc2ccccc12)N1CCN(c2ccccc2F)CC1,-32%
COc1cccc(CNC(=O)Cc2csc3ccccc23)c1OC,-30%
COc1ccc(CNC(=O)c2cnc3sc(N4CCCC4)nn3c2=O)c(OC)c1,-4%
CNS(=O)(=O)c1cn(CC(=O)Nc2ccc(C(C)=O)cc2)cc1S(=O)(=O)NC,-1%
O=C(CSC1=Nc2ccccc2C2=NC(Cc3ccccc3)C(=O)N12)Nc1ccccc1 (stereo not given),6%
CCN(C(=O)Cn1c(SCC(=O)NCc2ccccc2)nc2ccccc21)c1cccc(C)c1,-7%
Cc1ccc(NC(=O)c2nc(S(C)(=O)=O)ncc2N(Cc2cccc(F)c2)Cc2ccco2)cc1C,1%
COc1ccc(NC(=O)C2CCCN(C(=O)c3cnn(-c4ccccc4)c3-n3cccc3)C2)cc1 (stereo not given),26%
COc1ccc(NC(=O)c2nnn(Cc3ccccc3C)c2N)c(OC)c1,5%
O=C(Nc1ccc(OCc2cc(=O)n3ccccc3n2)cc1)c1ccccc1Cl,2%
CCOc1ccc(-c2nnc(SCC(=O)Nc3cc(F)ccc3F)o2)cc1,-23%
CCN(Cc1ccccc1)C(=O)Cn1c(=O)n(-c2ccc(Cl)cc2)c(=O)c2c(C)c(C(=O)N(C)C)sc21,-1%
Cc1ccc2c(=O)c(C(=O)c3ccccc3)cn(CC(=O)NCc3ccccc3)c2n1,-2%

# Not a retest: an excerpt of the list.
SMILES,miR-21 FLuc
COc1ccc(NC(=O)c2nnn(Cc3ccccc3C)c2N)c(OC)c1,5%
O=C(Nc1ccc(OCc2cc(=O)n3ccccc3n2)cc1)c1ccccc1Cl,2%
CCOc1ccc(-c2nnc(SCC(=O)Nc3cc(F)ccc3F)o2)cc1,-23%

# New compounds follow.
SMILES,miR-21 FLuc
O=C(Cn1cc(SCc2ccc(C(F)(F)F)cc2)c2ccccc21)N1CCCC1,0%
CCn1c(SCC(=O)c2ccccc2)nnc1-c1cccc(Cl)c1,-1%
COc1ccc(CCNC(=O)c2ccc(-n3c(C)cc4c3CCC(C)C4)cc2)cc1OC (stereo not given),?
Cc1oc2c(c(C)cc3oc(=O)c(CC(=O)NCc4ccc(F)cc4)c(C)c32)c1C,1%
Cc1ccc(NC(=O)CN(C)S(=O)(=O)c2ccc3c(c2)n(C)c(=O)c(=O)n3C)cc1F,-1%
CCOC(=O)c1ccccc1NC(=O)CSc1nccn1Cc1ccco1,-1%
CCOc1ccc(NC(=O)C2CCCN(S(=O)(=O)c3c(C)noc3/C=C/N(C)C)C2)cc1 (stereo not given),9%
Cc1ccc(N2C(=O)N(CC(=O)C(C)(C)C)c3ccccc3S2(=O)=O)cc1C,5%
Cc1nn(CC(=O)NCc2ccccc2Cl)c(=O)c2nn(-c3ccccc3)c(C)c12,0%
CCOc1ccc(C2Nc3c(C)cccc3-c3cc(C)nn32)cc1 (stereo not given),17%
CCOc1ccc(-c2nonc2NC(=O)c2oc3cc(Br)ccc3c2C)cc1,6%
COc1ccc(N2CC(NC(=O)c3cc4ccccc4o3)CC2=O)cc1OC (stereo not given),-3%
CC(=O)c1cccc(NC(=O)Cn2c(C)c3cnn(-c4ccccc4)c(=O)c3c2C)c1,0%
COc1ccc(C(CNC(=O)c2ccc(F)cc2)N2CCCC2)cc1 (stereo not given),-7%
COc1ccc(CCNc2ncnc3onc(C)c23)c(OC)c1,26%
CCOc1ccccc1NC(=O)CSc1nccn1-c1ccc(Cl)cc1,3%
COc1ccc(-c2ccc(CCC(=O)O)n2-c2ccc(Cl)cc2C)cc1,-1%
CCN(CC)C(=O)c1sc2c(c1C)c(=O)n(Cc1ccccc1)c(=O)n2Cc1c(C)cc(C)cc1C,?
COc1cccc(N2CCN(C(=O)CCCn3c(=O)[nH]c4ccc(Br)cc4c3=O)CC2)c1,?
CC(C)CN(CCCNC(=O)c1cc(-c2cccs2)nc2ccccc12)CC(C)C,15%

# Part of the list above, field by field:
> COc1ccc(CCNc2ncnc3onc(C)c23)c(OC)c1
  miR-21 FLuc: 26%

> CCOc1ccccc1NC(=O)CSc1nccn1-c1ccc(Cl)cc1
  miR-21 FLuc: 3%

> COc1ccc(-c2ccc(CCC(=O)O)n2-c2ccc(Cl)cc2C)cc1
  miR-21 FLuc: -1%

> CCN(CC)C(=O)c1sc2c(c1C)c(=O)n(Cc1ccccc1)c(=O)n2Cc1c(C)cc(C)cc1C
  miR-21 FLuc: ?

# Remaining list, next part
SMILES,miR-21 FLuc
COc1ccccc1CNC(=O)CCc1c(C)nc2cc(-c3ccc(Cl)cc3)nn2c1C,-4%
O=C(Nc1cccc2cccnc12)c1ccc(-c2cccc(Cl)c2)o1,-2%
COc1ccc(-n2nnnc2C2CCN(S(=O)(=O)c3ccc(NC(C)=O)cc3)CC2)cc1,?
COc1cc(Cl)c(NC(=O)CN2C(=O)c3cccnc3Sc3ccccc32)c(OC)c1,4%
Cc1nnc(SCC(=O)NCc2cccc(F)c2)c2nn(-c3ccccc3)c(C)c12,30%
CCc1ccccc1N(C)C(=O)c1cn(CC(C)C)c(=O)c2cc(OC)c(OC)cc12,24%
O=C(O)Cn1nc(N2CCN(c3ccc(F)cc3)CC2)ccc1=O,-3%
Cc1ccc(N(C(=O)COc2ccccc2C)S(=O)(=O)c2ccc(Cl)cc2)cc1,10%
CC(C)Sc1ncc(Cl)c(C(=O)Nc2nc3ccc(S(C)(=O)=O)cc3s2)n1,1%
COc1ccc(NC(=O)c2ccco2)cc1NC(=O)C(C)(C)Oc1ccc(Cl)cc1,3%
CCc1ccccc1NC(=O)CSc1nc(C)c(C(=O)Nc2ccccc2)c(-c2ccc(Cl)cc2)c1C#N,-61%
Cc1ccc(O)c(-c2n[nH]c3c2C(c2ccc(F)cc2)N(Cc2ccco2)C3=O)c1 (stereo not given),17%
Cc1ccc(NC(=O)Cn2c(=O)n(CCc3ccccc3)c(=O)c3c4c(sc32)CCCC4)cc1C,-1%
CCc1ccc(S(=O)(=O)Nc2cccc(-c3ccc(N4CCCCC4)nn3)c2)s1,-31%
COc1cccc(Cn2c(=O)n(-c3cccc(Cl)c3C)c(=O)c3c4c(sc32)CN(C(C)=O)CC4)c1,-3%
CCOC(=O)c1c(S(=O)(=O)NCC(=O)N(C)Cc2ccccc2)c(C)n(C)c1C,-12%
COc1ccc(Cl)cc1Nc1sc(C(=O)c2ccccc2)c(N)c1C(=O)Nc1ccccc1,1%
Cc1cccc(-c2nc3scc(CCNS(=O)(=O)c4ccc(F)c(C(F)(F)F)c4)n3n2)c1,-3%
COc1ccc(OC)c(C(=O)CN2C(=O)N(c3ccc(C)cc3)S(=O)(=O)c3ccccc32)c1,2%
COc1cccc(CNC(=O)CCc2c(C)c3cc4c(C)coc4cc3oc2=O)c1,-11%

# (cont.)
smiles	miR-21 FLuc
Cc1ccc(S(=O)(=O)C2(C(=O)Nc3ccc(C)c(Cl)c3)CC2)cc1	-4%
O=C(C1CCN(S(=O)(=O)Cc2ccccc2)CC1)N1CCN(c2ccccc2F)CC1	-1%
CC1=C(c2ccc(F)cc2)S(=O)(=O)N=C1N1CCC(C(=O)NCCc2cccc(C)c2)CC1	1%
Clc1ccc(Nc2nc(-c3ccccc3)c3ccccc3n2)c(Cl)c1	1%
CCC(C(=O)NCCc1ccc(OC)c(OC)c1OC)n1nc(C)c2sc3ccccc3c2c1=O (stereo not given)	-48%
O=C(NCc1cccc(Cl)c1)c1cnc(N2CCOCC2)c2ccccc12	-10%
CC(C)(C)OC(=O)N1CCC(c2c(C(=O)N3CCCCC3)cnn2-c2ccc(F)cc2)CC1	0%
Cc1cc(NC(=O)CSc2nc3c([nH]c4ccccc43)c(=O)n2-c2cccc(Cl)c2)no1	-1%
Cc1cccc(OCC(=O)N(Cc2ccccc2)c2ccccn2)c1	-20%
CCCCNc1nc(Oc2ccc(=O)n(-c3ccccc3)n2)nc(N(C)C)n1	0%
Cc1cccc(NC(=O)Cn2c(=O)n(CCC(=O)N3CCc4ccccc4C3)c(=O)c3ccccc32)c1	-2%
CCc1ccc(CNC(=O)c2cc3c(=O)n(Cc4cccs4)ccc3nc2C)cc1	-9%
CC1CCN(S(=O)(=O)c2cn(CC(=O)Nc3cccc(C(F)(F)F)c3)c(=O)c3ccccc23)CC1	?
COc1ccccc1OCc1nc2ccccc2n1Cc1ccccc1	-19%
CCc1ccc(NC(=O)CN2C(=O)C(=O)c3ccccc32)cc1	-4%
Cc1cc(C)cc(NC(=O)CCCc2nc(-c3ccco3)no2)c1	-6%
Cc1oc2cc3oc(=O)c(CCC(=O)NCCc4ccccc4F)c(C)c3cc2c1C	-37%
O=C(Nc1cccc(Cl)c1)C1CCCN(c2ncnc3c2nc2n3CCCCC2)C1 (stereo not given)	?
Cc1ccc2[nH]c(C)c(CCNC(=O)c3cc4cc(Br)ccc4oc3=O)c2c1	-1%
CC1CCc2nc3ncn(Cc4ccccc4C#N)c(=O)c3cc2C1 (stereo not given)	-14%
COc1ccc(OC)c(-c2cc(C(=O)Nc3cccc(Cl)c3C)no2)c1	-20%
CCN(c1cccc(C)c1)S(=O)(=O)c1ccc2[nH]cc(C(=O)NCCCOC)c(=O)c2c1	19%
CC(C)n1cc2c(c1-c1ccccc1Cl)c(=O)n(C)c(=O)n2C	-17%
CCN(Cc1ccccc1)c1ncnc2c1nnn2C	-16%

# A different layout for some results above.
miR-21 FLuc	canonical_smiles
-2%	Cc1cccc(NC(=O)Cn2c(=O)n(CCC(=O)N3CCc4ccccc4C3)c(=O)c3ccccc32)c1
-9%	CCc1ccc(CNC(=O)c2cc3c(=O)n(Cc4cccs4)ccc3nc2C)cc1

# (listing goes on)
smiles	miR-21 FLuc
Cc1ccc(S(=O)(=O)c2nc(-c3cccs3)oc2N2CCCCC2)cc1	1%
CCN(C(=O)CSc1nnc(-c2cc3occc3n2C)n1-c1ccccc1C)c1cccc(C)c1	-2%
COc1ccc(NC(=O)c2ccc(NC(=O)CCS(=O)(=O)c3cccs3)cc2)cc1OC	10%
COc1cc(/C=C2\C(=N)N3N=C(S(=O)(=O)CC(C)C)SC3=NC2=O)ccc1OC(=O)c1ccco1	-2%
Cc1cccc(NC(=O)CN2C(=O)CC(c3ccccc3)Sc3ccccc32)c1 (stereo not given)	-1%
COc1ccc2nc3sc(C(=O)N4CCN(c5ccccc5)CC4)cc3cc2c1	0%
CCCC1=Nc2cc(C(=O)NC3CCCCC3)ccc2Sc2ccc(C)cc21	24%
CCOC(=O)c1ccc(CN(Cc2ccc(OC)cc2)S(=O)(=O)c2cccc(C(F)(F)F)c2)cc1	4%
NC(=O)C1CCN(C(=O)Cn2c(-c3cccs3)cc3ccccc32)CC1	-2%
COc1ccc(-c2nc(SCC(=O)N3CCN(c4ccc(F)cc4)CC3)n[nH]2)cc1	0%
O=C(NCCc1ccccc1)c1cc(-c2ccccc2)nc2n[nH]c(-c3ccccc3)c12	-25%
CCc1ccc(-n2c(=O)c3c4c(sc3n(CC(=O)c3ccc(F)cc3)c2=O)CCC4)cc1	-1%
CCOc1ccc(C(=O)NCCn2cc(SCC(=O)Nc3ccc4c(c3)OCCO4)c3ccccc32)cc1	23%
COc1ccc(N2CC(NC(=O)C3CC3)CC2=O)cc1 (stereo not given)	-3%
CCCCN(C)CCCNC(=O)Cn1ncc2c3ccccc3n(Cc3ccccc3F)c2c1=O	4%
Cc1cc(C)cc(NC(=O)C2CC(=O)N(c3ccccc3)C2)c1 (stereo not given)	-9%
COc1ccc(OC)c(NC(=O)CCn2cccn2)c1	-3%
Cc1c(Cl)cccc1NC(=O)CCOc1ccccc1	-15%
CCc1ccc(C2=CC(c3c(F)cccc3Cl)n3c(nc4ccccc43)N2)cc1 (stereo not given)	-13%
CCc1ccc(CN(Cc2ccco2)C(=O)c2ccc(OC)cc2)cc1	6%
Cc1nnc(N2CCCC(C(=O)NCCc3ccccc3)C2)c2nn(-c3ccccc3)c(C)c12 (stereo not given)	8%

# Source: PubChem BioAssay
